HPGD block = qHTS Assay for Inhibitors of HPGD (15-Hydroxyprostaglandin Dehydrogenase). 15-hydroxyprostaglandin dehydrogenase [NAD(+)] (Homo sapiens), P15428. hit rate 4.3% among 150,000. AID 894, 2007. Potency, µM, inactives show at the top dose activity change, negative = inhibition, hits mostly inhibitors. purified HPGD, NADH fluorescence kinetic, PGE2 substrate; active = well fitted inhibition curve with a large enough effect (not every such curve was filed as active); inconclusive = small, poorly fitted or top-dose-only effect, or another doubt; inactive = no such curve, though single readings can be large or run the other way;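 further: top concentration of the series not given in the record; plate controls included wells without enzyme; inactives centre near -10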
Target sequence (P15428 whole entry, looked up): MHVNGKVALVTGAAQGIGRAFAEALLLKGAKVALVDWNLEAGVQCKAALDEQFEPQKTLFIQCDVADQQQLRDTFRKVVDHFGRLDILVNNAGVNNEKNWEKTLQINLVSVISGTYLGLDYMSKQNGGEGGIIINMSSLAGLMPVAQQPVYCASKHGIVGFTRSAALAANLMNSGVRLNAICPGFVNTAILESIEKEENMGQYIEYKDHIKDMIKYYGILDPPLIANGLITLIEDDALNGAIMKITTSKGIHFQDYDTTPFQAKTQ
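NADH formation kinetics: reaction with 30 uM PGE2 and 1 mM NAD+ (final), 20 nM enzyme, Tris-HCl pH 8 with Tween 20, after 15 min compound preincubation at room temperature. Fluorescence change, last versus first of five reads.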
The depositor's hits bear a star; ? = inconclusive; & = joins results of further samples. On the % scale 0 is the no-effect control and ±100 the full control effect; potency means the concentration at half of the fitted maximal effect. Not all compounds are listed; count on the stated rates, not on these rows.

HPGD block | canonical_smiles
-2% | CCC(C)N(C(=O)CSc1nc(-c2ccccc2)cs1)C1CCS(=O)(=O)C1 (centres undefined)
-5% | CCOC(=O)N1CCC(Nc2c(NCCCN(C)Cc3ccccc3)c(=O)c2=O)CC1
-24%&-3% | COCCNC(=O)[C@H](C)[C@H]1C[C@]1(C)[C@H](NC(=O)OCc1ccccc1)c1ccccc1
-13% | Cc1ccc(NC(=O)C2CC(=O)NC(N3CCc4ccccc43)=N2)cc1 (centres undefined)
-13% | CCOc1ccc(NC(=O)[C@@H](NC(=O)c2ccccc2)[C@@H](C)CC)cc1
-14% | CCCCOc1ccccc1NC(=O)Cn1c(-c2nonc2N)nc2ccccc21
16µM* | COc1ccc(NC2=C(Cl)C(=O)N(CCc3ccccc3)C2=O)c(OC)c1
-1% | Cc1nnc(NC(=O)CSc2nccn2-c2cccc(C)c2C)s1
-13% | Cc1c(NC(=O)CSc2ccccn2)c(=O)n(-c2ccccc2)n1C
-7% | Cc1cccc2sc(NC(=O)CN3C(=O)c4ccccc4C3=O)nc12
-2% | O=c1c2ccccc2nc(SCc2cc([N+](=O)[O-])cc3c2OCOC3)n1-c1ccccc1
-14% | O=C1c2cnccc2CN1Cc1ccccc1
-14% | CS(=O)(=O)N1CCC2(CC1)CN(Cc1ccccc1)C2
-4% | CCC(Oc1ccccc1)C(=O)Nc1ccc(S(=O)(=O)NCC2CCCO2)cc1 (centres undefined)
25µM* | O=C(C1Cc2ccccc2O1)N1CCCCC1 (centres undefined)
? | Cc1sc2nc3n(c(=O)c2c1C)Cc1ccccc1-3
-9% | NC(=O)C1(N2CCCCC2)CCN(C(=O)c2ccc(C#Cc3ccccc3)o2)CC1
-18% | COc1cccc(OCC(O)CN2CCOCC2)c1 (centres undefined)
-10% | N#CCSc1nc(-c2ccccc2)c2cc(Cl)ccc2n1
-14% | Cc1ccc(NC(=O)CSc2nnc(Cn3cnc4ccccc43)o2)c(C)c1
5% | CCn1c(=O)cc(OCC(=O)NCCCN2CCC(C)CC2)c2ccccc21
? | CCOc1ccc2oc(-c3ccccc3)c(C(=O)N3CCN(C)CC3)c2c1
-9% | C=CCC1c2cccc(C(=O)O)c2C(=O)N1c1ccc(F)cc1 (centres undefined)
-8% | COc1ccc(C(=O)CCC(=O)O)cc1
? | COc1ccc(C(=O)c2c[nH]c(C(=O)NCc3ccco3)c2)cc1
-15% | C=CCn1c(-c2cccn(Cc3ccc(Cl)cc3Cl)c2=O)n[nH]c1=S
25µM* | C=CCNC(=O)CSc1nc2cc(C(=O)OCC)ccc2n1CC
? | COc1ccc(NC(=O)c2c(Nc3ccccc3)sc(C(=O)c3ccc(F)cc3)c2N)cc1
-12% | CCCCN(CC)CCNc1c(NC2CCN(C(=O)OCC)CC2)c(=O)c1=O
? | CCSc1ccccc1C(=O)Nc1nncs1

Five entries from above, reformatted.
Compound | HPGD block
CCCCN(CC)CCNc1c(NC2CCN(C(=O)OCC)CC2)c(=O)c1=O | -12%
O=c1c2ccccc2nc(SCc2cc([N+](=O)[O-])cc3c2OCOC3)n1-c1ccccc1 | -2%
CS(=O)(=O)N1CCC2(CC1)CN(Cc1ccccc1)C2 | -14%
C=CCNC(=O)CSc1nc2cc(C(=O)OCC)ccc2n1CC | 25µM*
CCSc1ccccc1C(=O)Nc1nncs1 | ?

Reprinted at random: 3 compounds from above
HPGD block | canonical_smiles
? | CCSc1ccccc1C(=O)Nc1nncs1
-12% | CCCCN(CC)CCNc1c(NC2CCN(C(=O)OCC)CC2)c(=O)c1=O
-13% | Cc1c(NC(=O)CSc2ccccn2)c(=O)n(-c2ccccc2)n1C

Compounds above with an NH in an aromatic ring, in the order listed:
HPGD block | canonical_smiles
? | COc1ccc(C(=O)c2c[nH]c(C(=O)NCc3ccco3)c2)cc1
-15% | C=CCn1c(-c2cccn(Cc3ccc(Cl)cc3Cl)c2=O)n[nH]c1=S

Carrying on:
HPGD block | canonical_smiles
-4% | Cc1ccccc1OCC(O)Cn1c(NCc2ccco2)nc2c1c(=O)n(C)c(=O)n2C (centres undefined)
-17% | CCOc1ccc(C2C(C#N)=C(C)NC3=C2C(=O)c2ccccc23)cc1 (centres undefined)
-14% | Cc1onc(-c2ccccc2)c1C(=O)NCCc1ccc(S(N)(=O)=O)cc1
-11% | Cc1ccc(-n2c3c(c(=O)[nH]c2=O)C(NS(=O)(=O)c2ccc(C)cc2)(C(F)(F)F)C(=O)N3)cc1 (centres undefined)
25µM* | COc1cc(/C=C(\C#N)C(=O)N2CCOCC2)cc(Br)c1O
? | COc1cc(OC)cc(C(=O)Nc2ccc(-c3nc4ccccc4o3)cc2)c1
-7% | CC(Oc1ccccc1F)C(=O)NN (centres undefined)
-8% | Cc1nnc(NC(=O)CSc2nc(C3CCCCC3)nc3ccccc23)s1
-20% | CCOC(=O)Nc1ccc2c(c1)OCO2
-3% | Cc1ccc(C(=O)NNC(=O)c2ccco2)cc1
-6% | CC/C(=N/Nc1cccc(C)c1)c1cnnc(SC)n1
14µM* | CCCOc1ccc(OCCSc2ncccn2)cc1
-4% | CC(NC(=O)c1ccco1)C(c1cccs1)N1CCOCC1 (centres undefined)
-6% | COc1ccc(/C=C/C(=O)N2CCN(S(=O)(=O)/C=C/c3ccccc3)CC2)cc1OC
-4% | CCCOc1c(OC)cccc1C1CC(=O)Nc2cc3c(cc21)OCCO3 (centres undefined)
? | CCOC(=O)c1sc2nc(C(C)C)c3c(c2c1N)CCC3
? | COC(=O)c1c(C)c(C)nc(N)c1C#N
-8% | CCCNC(=O)N1CCC(C(=O)c2ccc(F)cc2)CC1
-1% | Cc1cc(SCC(=O)Nc2ccccc2C)nc(C)n1
-8% | O=[N+]([O-])c1cccc(S(=O)(=O)NCCCN2CCOCC2)c1
-13% | Cn1c(=O)c2c(nc(NCc3ccccc3)n2CC(=O)NCc2ccccc2)n(C)c1=O
? | Cc1ccccc1NCC(=O)N/N=C/C(Br)=C/c1ccccc1
-2% | CCCCC/C=C\C[C@@H](O)/C=C/C=C\CCC(=O)O
-17% | O=C(OCC#CCSc1nc2ccccc2s1)c1ccco1
-9% | CC12CN3CCN(CC(C3)/C1=N/NC(=O)Nc1ccccc1)C2
? | CC[C@@]1(O)C(=O)COc2c1cc1n(c2=O)Cc2c-1nc1cccc(C(C)C)c1c2[Si](C)(C)C
2% | COc1ccc(C2CC(=O)C=C(O)C2)cc1 (centres undefined)
-15% | Cc1nc2ccccc2c(=O)n1Nc1cccc(Cl)c1
-23% | Cc1occc1C(=O)n1nnc2ccccc21
-13% | CCn1nc(NC(=O)c2cccnc2)c2cc3cccc(C)c3nc21

Next section.
HPGD block | canonical_smiles
-7% | COC(=O)C1=C(C)NC(=O)NC1c1ccsc1 (centres undefined)
-16% | CC(C)Oc1ccc(/C(O)=C2/C(=O)C(=O)N(CCN3CCOCC3)C2c2ccccc2)cc1 (centres undefined)
-15% | COC(=O)c1ccccc1NC(=O)c1nc2nc(C)cc(C)n2n1
0% | CCOC(=O)N1CCN(S(=O)(=O)c2ccc3c(c2)CCN3C(=O)C2CCC2)CC1
? | CC(Nc1n[nH]c(=S)[nH]c1=O)C(=O)OCc1ccccc1 (centres undefined)
-9% | COc1ccc(-c2nnn(CC(=O)N(CCO)C(C(=O)NC3CCCC3)c3ccc(F)cc3)n2)cc1 (centres undefined)
-6% | O=C(O)Cc1cccc2ccccc12
-1% | COC(=O)c1nnc(C(=O)NCc2ccccc2)c2[nH]c3ccc(OC)cc3c12
-16% | COCCN(CC(=O)NCc1ccccc1)C(=O)CCC(=O)Nc1ccccn1
-14% | COc1ccc(NC(=O)c2[nH]c(C)c(C(C)=O)c2C)cc1Cl
-22% | Cc1ccc(C(=O)Cn2c(C(=O)/C=C/c3ccccc3)nc3ccccc32)cc1
-18% | CC(C)CC(=O)Nc1nnc(-c2ccco2)s1
-13% | COc1ccc(-n2c(=S)[nH]c3cc(C(=O)NCc4ccco4)ccc3c2=O)cc1OC
? | Cn1c(SCC(=O)c2cc3ccccc3o2)nnc1-c1ccccc1
-9% | Cc1cnc(C(=O)OCC(=O)N(C(C)C)C(C)C)cn1
-14% | Cc1ccc(NC(=O)C2CCCN2S(=O)(=O)c2ccc3c(c2)n(C)c(=O)c(=O)n3C)cc1C (centres undefined)
-3% | COc1cccc(OCc2nc3ncc(Br)cc3[nH]2)c1
-2% | O=S(=O)(c1ccc(Cl)cc1)c1snnc1-c1ccccc1
-15% | Cc1ccc(-c2nc(CS(=O)CC(=O)NCc3ccc(Cl)cc3)c(C)o2)cc1 (centres undefined)
0% | O=C(c1cccnc1)N1CCN(C(=O)c2cccs2)CC1
-11% | CC(C)Oc1ccc(N2CC(C(=O)Nc3ccccc3F)CC2=O)cc1 (centres undefined)
-28% | COc1ccc(C)cc1NC(=O)C(Sc1nnc(Nc2cc(C)ccc2OC)s1)c1ccccc1 (centres undefined)
-27% | CNC(=O)COC(=O)c1cc(=O)[nH]c2ccccc12
25µM* | CSc1ncc(Cl)c(C(=O)C(C#N)c2nc3c(C)cc(C)cc3c(=O)[nH]2)n1 (centres undefined)
-11%&-26% | CC(Cc1ccccc1)C(=O)Nc1ccccc1 (centres undefined)
-16% | CCn1c(SCC(=O)N(C(C)C)C(C)C)nnc1-c1cc2ccccc2cc1O
-14% | COc1ccc(OCCNC(=O)CSc2ccc(C(F)(F)F)cc2[N+](=O)[O-])cc1
2% | CC(=O)c1cccc(NC(=O)CSc2nnc(-c3cccnc3)o2)c1
-17% | COC(=O)c1ccc(Oc2nc(N3CCCCC3)nc(N3CCOCC3)n2)cc1
-14% | O=C(CCN1C(=O)c2ccccc2C1=O)N1CCN(C(=O)c2ccccc2)CC1

(cont.)
HPGD block | canonical_smiles
-15% | CCNc1nc(NCC)nc(SCCOC(=O)Nc2ccccc2)n1
? | CCOC(=O)c1ccccc1NC(=O)c1cc2sccc2n1C
3% | O=C(O)CN1CCNCC1
-1% | Cc1cccc(C(=O)NC2CCN(C(=O)N3CCOCC3)CC2)c1
-15% | CC(C)CC1C(C#N)=C(N)Oc2n[nH]c(-c3ccccc3)c21 (centres undefined)
-17% | O=C1C2CCCN2C(c2ccccc2F)N1c1ccc(F)cc1 (centres undefined)
0% | COc1cccc(C(=O)NNC(=O)c2ccccc2Br)c1
-14% | Cc1ccc(CC(=O)N2CCN(c3ccccn3)CC2)cc1
-6% | CC(=O)C1=C(C)N(Cc2ccco2)C(=O)N[C@@H]1c1ccccc1
-4% | CC(C)=CCc1c2c(c3occ(-c4ccc(O)cc4)c(=O)c3c1O)C=CC(C)(C)O2
-9% | COc1cccc(NC(=O)N(CCCN2CCOCC2)C(C)c2cc3cccc(OC)c3o2)c1 (centres undefined)
-10% | COc1ccc(CCNC(=O)CSc2nnnn2-c2ccccc2OC)cc1OC
-8% | CCNc1nc(NC(C)C)nc(N(C#N)CCOc2ccccc2)n1
? | COC(=O)c1[nH]c(C)c(/C(O)=C2\C(=O)C(=O)N(CCCN3CCOCC3)C2c2ccccn2)c1C (centres undefined)
-9% | FC(F)(F)c1cc(CN2CC3(CCNCC3)C2)cc(C(F)(F)F)c1
-8% | COC(=O)N1[C@H]2CC[C@@]3(C)CC(=O)C[C@]1(C)C3c1ccccc12

6 successive records out of the list so far:
HPGD block | canonical_smiles
-13% | CCOc1ccc(NC(=O)[C@@H](NC(=O)c2ccccc2)[C@@H](C)CC)cc1
-14% | CCCCOc1ccccc1NC(=O)Cn1c(-c2nonc2N)nc2ccccc21
16µM* | COc1ccc(NC2=C(Cl)C(=O)N(CCc3ccccc3)C2=O)c(OC)c1
-1% | Cc1nnc(NC(=O)CSc2nccn2-c2cccc(C)c2C)s1
-13% | Cc1c(NC(=O)CSc2ccccn2)c(=O)n(-c2ccccc2)n1C
-7% | Cc1cccc2sc(NC(=O)CN3C(=O)c4ccccc4C3=O)nc12

Screening results (PubChem BioAssay)
